SmPrx2 inh: inhibitors of Schistosoma mansoni peroxiredoxin 2. S. mansoni Prx2 activity coupled to TGR/GSH (TGR is thioredoxin glutathione reductase), NADPH fluorescence loss, qHTS; some inactives read as strong as hits. Potency, µM. 65,000 compounds, 0.07% hits. AID 448; active means full or partial inhibition curve with a strong effect at the top dose; inconclusive means weaker partial or single-point curve; inactive means no accepted curve; also: series up to 57 µM; many of its hits are not listed in these tables
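Prx2 activity was followed as the loss of NADPH fluorescence (ex 365/em 450 nm), read every 30 sec for 8 min after H2O2 start. The enzyme mix (50 nM Prx2, 25 nM TGR, GSH, NADPH; pH 7.4 phosphate buffer) was incubated with compound for 15 min at room temperature first.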
LT uptake inh: anthrax lethal toxin internalization inhibition | Cells, anthrax lethal toxin internalization, FRET ratio (460/530) | Potency, µM (highest dose often 40 µM), for inactives: top-dose activity change, negative = inhibition, most hits filed as inhibitors | 70,000 compounds, 0.67% hits | AID 912; active = well fitted falling ratio curve with the 530 nm signal flat; inconclusive = other ratio curves, or a change in one channel alone; inactive = flat curves in the ratio and both channels; the % refers to the ratio; also: % is scaled to controls: 0 for no effect and ±100 for the full control effect; nearly all actives have a fitted effect of over 50% in size; tested in ME-180 cells; beta-lactamase reporter
* hit, by the source's call; ? = inconclusive; · = no result given; & = joins results of further samples; [ ] = dose if it differs, or a comment. Potency is read from the fitted curve at half-maximal effect.

Under each structure: LT uptake inh | SmPrx2 inh
> O=C(CCNc1cccc(Cl)c1)c1ccco1
  7% | >57
> CCC(=O)Nc1ccc(OC)cc1OC
  -6% | >57
> CC1CCCN(S(=O)(=O)c2ccc(NC(=O)CN3CCN(C)CC3)cc2)C1 (configuration not stated)
  4% | >57
> CCOC(=O)c1sc(NC(=O)c2c(C)noc2C)c(C(=O)OCC)c1C
  1% | >57
> Cc1cccc(OCCSc2cc(C)nc(N)n2)c1
  -11% | ·
> CCCC(c1nnnn1Cc1ccc(F)cc1)N1CCN(C2CCCCC2)CC1 (configuration not stated)
  -24% | >57
> Cc1cc(CN(C)C)c(OC(=O)N(C)C)cc1C
  -5% | >57
> O=C(CCN1C(=O)c2ccccc2C1=O)Nc1ccc(F)cc1F
  -19% | >57
> CCCCN1C2=NCCCN2c2cc(C)c(C)cc21
  -9% | >57
> Cc1noc(C)c1COC(=O)c1ccc2c(c1)OCO2
  2% | >57
> CCOC(=O)C1CCCN(S(=O)(=O)c2ccc(Br)s2)C1 (configuration not stated)
  -12% | >57
> COc1ccc(-n2cnnc2SCC(=O)N(C)C2CCS(=O)(=O)C2)cc1 (configuration not stated)
  2% | >57
> COC(=O)[C@@]1(Cc2ccc(OC)cc2)[C@H]2c3cc(C(=O)N4CCCC4)n(CCc4c[nH]c5cc(F)ccc45)c3C[C@H]2CN1C(=O)c1ccccc1
  ? | >57
> CC(=O)C1(C)CC2=C(CCCC2(C)C)CC1C (configuration not stated)
  -27% | ·
> O=c1c2c([nH]c3ccccc13)CCCCCC2
  -11% | >57
> Cc1cc(CN2CCOCC2)c(O)c(C2(C)CCCCC2)c1
  7% | >57
> COc1cc(OC)c(C2C(C#N)=C(N)OC3=C2C(=O)CC(C)(C)C3)cc1OC (configuration not stated)
  -16% | ·
> Cc1nnc(NCc2ccncc2)c2ccccc12
  ? | >57
> Cc1nc(NCCN2CCOCC2)c2nnn(Cc3ccccc3Cl)c2n1
  4% | >57
> CCN(CC)C(=O)C1CCC(C)(C(=O)O)C1(C)C (configuration not stated)
  1% | >57
> CCSc1nnc(NC(=O)c2nc(-c3ccccc3)n(-c3ccccc3)n2)s1
  8% | >57
> O=C(Nc1nc(-c2nc3ccccc3s2)cs1)C1CC1
  ? | >57
> COc1ccc(Nc2nc3ccccc3nc2C)cc1
  -26% | ·
> CCCCCCn1c(CN2CCCC(C)C2)nc2c1c(=O)n(C)c(=O)n2C (configuration not stated)
  8% | >57
> CC(=O)OCC1OC(c2cc(C)cc(C)c2)C=CC1OC(C)=O (configuration not stated)
  -5%[8 µM] | ·
> COc1ccccc1CNC(=O)CCNC(=O)Cn1cnc2ccccc2c1=O
  -8% | >57
> CS(=O)(=O)Nc1ccccc1C(=O)Nc1cccc(Cl)c1
  ? | >57
> CC(=O)N(c1ccc(Cl)cc1)c1c[nH]c2ccccc12
  -19% | ·
> Cc1cc(C)c2c(n1)nn1c(N3CCN(Cc4ccccc4)CC3)cc(C)nc21
  -7% | >57
> Cc1ccccc1N=C1NC(=O)CS1
  4% | >57

Further entries
Under each structure: LT uptake inh | SmPrx2 inh
> COc1cccc(NC(=O)N(Cc2cc3cc(C)cc(C)c3[nH]c2=O)CC2COCCO2)c1 (configuration not stated)
  ? | >57
> CCC(=O)Nc1c(C)cc(C)cc1Cl
  -1% | >57
> CCN(CC)c1ccc(-c2nn3c(-c4n[nH]c5c4CCC5)nnc3s2)cc1
  ? | >57
> c1ccc(-n2nnnc2N2CCOCC2)cc1
  5% | >57
> Cc1ccc(S(=O)(=O)N2CCCC2C(=O)OCc2nc3ccccc3s2)cc1 (configuration not stated)
  -11% | >57
> COc1ccccc1CCNC(=O)C1CCCO1 (configuration not stated)
  0% | >57
> CCn1c(COc2cccc(OC)c2)nnc1SCC(=O)N1CCOCC1
  -7% | >57
> Cc1nnc(NC(=O)c2ccc3ccccc3c2)o1
  6% | >57
> NC(=O)C1(N2CCCCC2)CCN(C(=O)c2cccs2)CC1
  11% | >57
> Cc1ccc(C)c(OCC(O)CN2CCC(C)CC2)c1C (configuration not stated)
  -6% | >57
> CCSc1nc(-c2ccc(OC)cc2)ccc1C#N
  ? | >57
> Cn1c(=O)n(C)c2cc(NC(=O)C(F)(F)F)ccc21
  3% | >57
> O=C(CSc1nc2ccncc2[nH]1)Nc1ccccc1C(F)(F)F
  20% | >57
> Cc1ccc(Cl)cc1N1CCN(C(=O)c2cn(C)c(=O)c3c2c2ccccc2n3C)CC1
  -13% | >57
> O=C(Nc1ccccc1)N1CC2(CCN(C(=O)c3ccncc3)CC2)C1
  7% | >57
> Cc1cc(NC(=O)c2cc(-c3ccncc3)nc3c(C)cccc23)no1
  -16% | >57
> COc1ccc(C2=NOC(C(=O)NCc3ccccc3)C2)cc1 (configuration not stated)
  -23% | >57
> CCOC(=O)CNC(=O)C1c2cc(OC)c(OC)cc2C(=O)N(C)C1c1ccccc1F (configuration not stated)
  0% | >57
> COCCCNC(=O)C(F)(F)C(F)(F)C(=O)NCCCOC
  -8% | ·
> CCC(=O)c1cn(CC(=O)NCc2cccnc2)c2ccccc12
  5% | >57
> CCCn1c(NC(=O)c2cccc(S(=O)(=O)N3CCCC3)c2)nc2ccccc21
  ? | >57
> O=C(CSc1nnc(NC(=O)C2CC2)s1)Nc1ccc(F)cc1
  -4% | >57
> C=CCn1c(COc2ccc(Cl)cc2)nnc1SCc1ccc(C#N)cc1
  14% | >57
> C=CCN=C(NC#N)SCC(=O)NCc1ccccc1
  1% | >57
> CC1CCN(C(=O)N[C@@H](Cc2ccccc2)C(=O)O)CC1
  ? | >57
> CCC(C)(C)n1nnnc1C(C(C)C)N(CCCO)Cc1cc2cc(C)ccc2[nH]c1=O (configuration not stated)
  -11% | >57
> CN(C)P1(N(C)C)=Nc2c(c(N)nn2C)C(c2ccccc2)=N1
  5% | >57
> O=C1C[C@@H](O)[C@@H](O)[C@H]2[C@@H]3C(=O)N(Cc4ccccc4)C(=O)[C@@H]3CC[C@H]12
  -10%&-8%[8 µM] | ·
> N#Cc1ccccc1CSc1ccccn1
  0% | >57
> C1=C(c2c[nH]c3ccccc23)CCNC1
  17% | >57

Whole records from above:
Profile of CCOC(=O)CNC(=O)C1c2cc(OC)c(OC)cc2C(=O)N(C)C1c1ccccc1F (configuration not stated) → LT uptake inh: 0%; SmPrx2 inh: >57
Profile of C=CCn1c(COc2ccc(Cl)cc2)nnc1SCc1ccc(C#N)cc1 → LT uptake inh: 14%; SmPrx2 inh: >57

Additional results
Under each structure: LT uptake inh | SmPrx2 inh
> CCOC(=O)c1cnc2sccn2c1=O
  -14% | >57
> CC(C)=CCC/C(C)=C/CO/N=C1/C[C@@H](O)[C@@H](O)[C@@H]2[C@@H]3C(=O)N(C[C@@H]4CCCO4)C(=O)[C@H]3CC[C@H]12
  5%[8 µM] | ·
> COC(=O)C1=C(C)N(C)C(=O)NC1c1ccc(O)c(OC)c1 (configuration not stated)
  -3% | >57
> O=c1c2ccccc2nc(SCc2nnc(-c3ccccc3)o2)n1-c1ccccc1
  ? | ·
> CNC(=O)CSc1nnnn1-c1ccc(C)cc1C
  4% | >57
> Cc1ccc(S(=O)(=O)N(CC(=O)N2CCOCC2)CC(=O)N2CCOCC2)cc1
  ? | >57
> CC1CN(S(=O)(=O)c2ccc(NC(=O)c3ccco3)cc2)CC(C)O1 (configuration not stated)
  -2% | >57
> CC(C)CN1CC2(CCN(C(=O)c3ccncc3)CC2)C1
  -2% | >57
> COc1ccc(CCN)cc1O
  -2% | >57
> COCCn1c(C)cc(C(=O)COc2nc3ccccc3nc2C)c1C
  5% | >57
> Cc1nc2ccccc2c2c1C(=O)N(CCC1=CCCCC1)C2=O
  1% | >57
> Cc1c(C(=O)NCc2ccccn2)oc2ccccc12
  2% | >57
> Cc1cc(NC(=O)c2cccc(S(=O)(=O)N3CCCCCC3)c2)n(-c2ccccn2)n1
  8% | >57
> COc1ccc(NC(=O)Cc2nc3ccccc3[nH]2)cc1
  -10% | ·
> CCCOC(=O)c1ccc(Nc2cc(C)nc3ncnn23)cc1
  -1% | >57
> Cc1ccc(-c2nc(CS(=O)CC(=O)NCc3ccccn3)c(C)o2)cc1 (configuration not stated)
  -9% | >57
> Cc1cc(Nc2ccccc2F)n2nc(C)nc2n1
  -1% | >57
> COc1cccc(C2C(C)CCC3C(=O)N(C)C(C(C)C)C(=O)N32)c1 (configuration not stated)
  -13%[8 µM] | ·
> O=C(Nc1ccc(F)cc1)N1CCn2c(nc3ccccc32)C1
  3% | >57
> O=C(NC1CCS(=O)(=O)C1)C1CCCCN1S(=O)(=O)c1ccc(Cl)cc1 (configuration not stated)
  7% | >57
> Cc1cc(OCc2nn[nH]n2)c2c(C)c(Cc3ccccc3)c(=O)oc2c1
  -16% | >57
> CCN(CC)Cc1cc(CC(C(N)=O)C(N)=O)ccc1OC
  -7% | >57
> Cc1nc2ccccc2cc1C(=O)NCc1ccco1
  3% | >57
> CCCCCCCC1=Cc2ccccc2C(CC(C)=O)N1C(=O)OC (configuration not stated)
  -10%[8 µM] | ·
> O=C(Cc1coc2ccc3ccccc3c12)N1CCCC1
  2% | >57
> COC(=O)c1cc2c(s1)=NC=NP=2(N1CCOCC1)N1CCOCC1
  -6% | >57
> CC(C)OCCCn1c(=S)[nH]c2ncccc2c1=O
  -10% | >57
> CC(=O)c1ccc(NC(=O)CSc2nnc(-c3ccoc3C)n2Cc2ccccc2)cc1
  -8% | >57
> Cc1ccc(C(=O)C2CCN(CC(=O)Nc3ccc(N(C)C)cc3)CC2)cc1
  -6% | >57
> Cc1ccccc1NC(=O)CSc1nc(N)c(C#N)c(-c2cccs2)c1C#N
  -12% | >57

Given as tab-separated lines: part of the list above
smiles	LT uptake inh	SmPrx2 inh
CCOC(=O)c1cnc2sccn2c1=O	-14%	>57
CC(C)=CCC/C(C)=C/CO/N=C1/C[C@@H](O)[C@@H](O)[C@@H]2[C@@H]3C(=O)N(C[C@@H]4CCCO4)C(=O)[C@H]3CC[C@H]12	5%[8 µM]	·
COC(=O)C1=C(C)N(C)C(=O)NC1c1ccc(O)c(OC)c1 (configuration not stated)	-3%	>57

Later entries:
Under each structure: LT uptake inh | SmPrx2 inh
> CC(C)=CCC/C(C)=C/CO/N=C1/C[C@@H](O)[C@@H](O)[C@@H]2[C@@H]3C(=O)N(C(C)(C)C)C(=O)[C@H]3CC[C@H]12
  4%[1.6 µM] | ·
> Cc1ccc(S(=O)(=O)N(C)CC(=O)Nc2nc3ccccc3s2)cc1
  -26% | >57
> CCCn1c(-c2ccc(F)cc2)nc2c(NCCCCN3CCCC3)nc(C)nc21
  -20% | ·
> COc1ccc(-n2nnnc2SCC(=O)NCCc2ccc(OC)c(OC)c2)cc1
  -19% | >57
> COC(=O)c1cccc(NC(=O)CN(c2ccc3c(c2)OCO3)S(C)(=O)=O)c1C
  0% | >57
> CC(C)n1c(SCC(=O)N2CCCc3ccccc32)nc2c1c(=O)n(C)c(=O)n2C
  -3% | >57
> CCOC(=O)N1CCC(NC(=O)Cc2ccc(-n3c(=O)[nH]c4ccccc4c3=O)cc2)CC1
  11% | >57
> CN(C)c1ncc2nc(-c3cc(F)cc(F)c3)c(=O)n(CCC#N)c2n1
  ? | >57
> CCCCn1c(CCCNC(=O)CC)nc2ccccc21
  -1% | >57
> CCOC(=O)C1CCCN(CC(=O)Nc2c(F)c(F)c(F)c(F)c2F)C1 (configuration not stated)
  -18% | >57
> C/C=C(\C)CN1CCN(c2cc(C)ccc2C)CC1
  -12% | ·
> Nn1c(SC/C=C/c2ccccc2)nnc1-c1ccccn1
  ? | >57
> O=c1c2ccccc2nc(CSc2nnnn2-c2ccccc2)n1-c1ccccc1
  2% | ·
> Cc1cc(C)n(-c2ccc(C(=O)Nc3ccccc3N3CCOCC3)cc2)n1
  ? | >57
> CC1CCN(CC(=O)Nc2sc3c(c2C#N)CCC3)CC1
  -9% | >57
> Cc1ccc(-c2cc3nc(C)cc(NCc4ccco4)n3n2)cc1
  ? | >57
> COCCNc1ncnc2ccc(-c3ccc(N(C)C)cc3)cc12
  -3% | >57
> Cc1cc(C)c(S(=O)(=O)Nc2cccc3nsnc23)c(C)c1
  -10% | >57
> Cc1ccc(C(=O)CCNc2ccc(Br)cc2)o1
  ? | >57
> CCn1c(=O)c(=O)n(CC)c2cc(S(=O)(=O)Nc3cccc(OC)c3)ccc21
  13% | >57
> COCCNCC(=O)NC12CC3CC(CC(C3)C1)C2
  ? | ?
> COc1cc(N=c2ssnc2Cl)cc(OC)c1OC
  ? | >57
> CCc1ccc2c(c1)[C@]1(C(=O)N2)[C@@H]2C(=O)N(Cc3ccccc3)C(=O)[C@@H]2[C@@H]2CCCN21
  -12% | >57
> CCCC1(C(=O)O)NC(c2cccc(OC)c2O)C2C(=O)N(c3ccccc3)C(=O)C21 (configuration not stated)
  -3% | >57
> CC1CCN(c2nc(-c3ccncc3)nc3ccccc23)CC1
  ? | ·
> O=C(CNCC1CCCO1)Nc1ccccc1-n1cccc1 (configuration not stated)
  -10% | >57
> N[C@@H](Cn1cc(I)c(=O)[nH]c1=O)C(=O)O
  ? | >57
> COC(=O)C1=C(C)OC(N)=C(C#N)C1c1ccccc1F (configuration not stated)
  3% | ·
> Cn1c(=O)oc2cc(S(=O)(=O)N3CCN(Cc4ccc5c(c4)OCO5)CC3)ccc21
  8% | >57
> N#Cc1nc(-c2ccco2)oc1N1CCN(c2ccccc2)CC1
  -9% | >57

Not all compounds are listed, so the mix of outcomes need not match the whole.
